# Source: PubChem BioAssay (several laboratories)
# ALR H2O2 inh = blocks human ALR sulfhydryl oxidase activity; P55789; 290,000 tested, 3.8% active; AID 485317; purified ALR, DTT oxidation, H2O2 HRP-luminol luminescence; inhibition, % (no concentration beside the values);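 active means mean and each replicate at 75% or more; inconclusive means only one of the two met; inactive means neither met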;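 further: stock transfer was 7.5 nL into about 7.5 µL; 0% = neutral wells and 100% = wells with inactivated enzyme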
# Target sequence (P55789 whole entry, looked up): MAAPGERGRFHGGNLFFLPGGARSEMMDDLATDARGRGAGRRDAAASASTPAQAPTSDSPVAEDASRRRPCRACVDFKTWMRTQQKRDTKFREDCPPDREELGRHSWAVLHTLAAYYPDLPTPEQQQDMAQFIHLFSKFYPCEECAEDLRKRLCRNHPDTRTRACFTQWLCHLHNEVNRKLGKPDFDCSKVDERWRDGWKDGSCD
# LANA-H2A inh = blocks KSHV LANA binding to histone H2A/H2B; inhibition, % (concentration not given with the values); cell-free LANA-H2A/H2B peptide, fluorescence polarization; 320,000 tested, 0.6% active; in the data active means inhibition mostly above about 10%, no sharp cut-off; inactive means mostly below about 6.7%;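 further: stock transfer was 7.5 nL into about 10 µL; 0% = median of vehicle wells and 100% = median of positive control wells; one replicate is shown; the record names a cut of 25% in any replicate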
# Calb FLC = affects C. albicans growth with fluconazole | C. albicans CaCi-2 (fluconazole-resistant clinical isolate) + fluconazole, Alamar Blue growth, 48 h | growth inhibition, % (test concentration not listed) | 300,000 tested, 0.57% active | AID 1979;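 active means most replicates above 75%; inconclusive means exactly half above 75%; inactive means most below 75%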;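 further: all wells also contain fluconazole at 8 µg/ml as a sub-toxic cotreatment; 0% = median of DMSO wells and 100% = median of geldanamycin control wells; wells of about 8 µL received 7.5 nL stock; the first replicate is given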
# RanGTP-Imp inh = inhibitors of RanGTP-importin-beta interaction, primary screen, biochemical, FRET, CFP-Ran, YFP-importin-beta, homogeneous | inhibition, % (test concentration not listed) | AID 2216 | 300,000 tested, 1.1% active | cell-free CFP-Ran/YFP-importin-beta FRET ratio;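 active means most replicates above 15%; inconclusive means exactly half above 15%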;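 further: 0% = DMSO wells and 100% = Ran loaded with GDP instead of GTP; wells of about 40 µL received 100 nL stock; the first replicate is given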
# Vif A3G = inhibitors of Vif binding to APOBEC3G peptide, primary screen, biochemical, TR-FRET, GST-Vif 1-94, biotin-A3G peptide, dose response retest (AID 1117319) | inhibition, %, or IC50 in µM where a hit was titrated | TR-FRET GST-Vif / biotin-A3G peptide binding; higher % means a stronger effect; test concentration not given here; strong numbers were not always called active | 260,000 tested, 0.57% active;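 active means above the screen mean plus three standard deviations and confirmed in dose response; inconclusive means results disagree or hit not tested in dose response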;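 further: Vif residues 1-94 fused to GST binding biotinylated APOBEC3G peptide 110-148; 0% = full assay without inhibitor and 100% = GST in place of GST-Vif; retest series ran down from 100 µM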
# HNF4A DNA FP = change in binding of human HNF4 alpha to DNA | HNF4a-FITC DNA binding, fluorescence polarization, 1 h | activity change, % at 10 µM | 360,000 tested, 0.3% active; in the data active means activity change above about 30%, passing the limit was not always enough;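 further: controls were the assay level and a saturating level of protein; the project sought stronger binding though the title names inhibitors; some compounds called inactive have numbers as strong as hits; positive values seem to mean higher polarization but the record does not say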
# Target sequence (P41235 whole entry, looked up): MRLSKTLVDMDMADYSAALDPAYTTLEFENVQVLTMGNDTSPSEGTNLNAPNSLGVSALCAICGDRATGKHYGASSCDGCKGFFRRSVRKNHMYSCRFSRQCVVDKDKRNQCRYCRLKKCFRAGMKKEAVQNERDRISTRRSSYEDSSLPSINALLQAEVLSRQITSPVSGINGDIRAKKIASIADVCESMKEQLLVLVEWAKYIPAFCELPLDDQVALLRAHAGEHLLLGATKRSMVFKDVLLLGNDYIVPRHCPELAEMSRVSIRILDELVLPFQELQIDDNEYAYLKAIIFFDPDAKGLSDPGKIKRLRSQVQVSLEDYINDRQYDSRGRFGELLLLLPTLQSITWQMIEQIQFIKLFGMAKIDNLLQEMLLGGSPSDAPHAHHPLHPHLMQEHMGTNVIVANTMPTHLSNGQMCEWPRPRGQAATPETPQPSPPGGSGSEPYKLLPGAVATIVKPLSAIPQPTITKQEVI
# B2AR ag = human beta-2 adrenergic receptor agonism by FAP; P07550; Am2.2-beta2AR cells, FAP receptor internalization, flow cytometry; reference of the scale not given here; response, % (test concentration not listed); 340,000 tested, 0.43% active; AID 504454;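 active means response above a set limit, near 3 SD of response in nonfluorescent compounds, cut at about 42% in these data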;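 further: stock transfer was 100 nL into about 11 µL; a reference agonist was the positive control; negative values mostly stem from fluorescent compounds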
# Target sequence (P07550 whole entry, looked up): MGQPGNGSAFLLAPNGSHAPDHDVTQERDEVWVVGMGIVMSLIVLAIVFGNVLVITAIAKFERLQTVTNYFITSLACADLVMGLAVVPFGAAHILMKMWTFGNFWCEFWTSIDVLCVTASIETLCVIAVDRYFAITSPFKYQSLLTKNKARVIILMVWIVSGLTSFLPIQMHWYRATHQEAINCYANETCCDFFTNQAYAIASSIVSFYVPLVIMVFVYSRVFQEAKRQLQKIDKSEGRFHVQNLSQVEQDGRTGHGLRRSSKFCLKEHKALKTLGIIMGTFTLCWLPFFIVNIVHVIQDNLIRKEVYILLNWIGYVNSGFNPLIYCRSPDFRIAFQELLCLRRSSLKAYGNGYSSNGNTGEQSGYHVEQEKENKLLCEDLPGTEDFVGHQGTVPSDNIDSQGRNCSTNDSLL
# Numbers without * were called inactive; ? = inconclusive; . = not tested or not shown; & = joins results of further samples.
SMILES,ALR H2O2 inh,LANA-H2A inh,Calb FLC,RanGTP-Imp inh,Vif A3G,HNF4A DNA FP,B2AR ag
COc1ccc(/C=C/C(=O)Nc2c(C(=O)O)[nH]c3ccccc23)cc1OC,35,6.6,1,-4.1,3%,-1.3,-2
COc1ccccc1C(=O)N/C(=C\c1cn(S(=O)(=O)N(C)C)c2ccccc12)C(=O)N1CCOCC1,-4,-2.2,7,-0.5,-4%,-1.3,2
COC(=O)CCC(=O)OC1(C)C(=O)C=C2C=C(C3CC3)N(CCN3CCOCC3)C=C2C1=O (centres undefined),.,3.1,8,-2.8,.,1.5,-1
Cc1ccc(NC(=O)COc2ccccc2)c(NC(=O)c2ccco2)c1,1,0.2,-2,-1.0,.,1.4,-18
COc1ccc(C2CC(c3ccc4ccccc4c3)=NN2C(=O)CN2C(=O)CCC2=O)cc1 (centres undefined),-12,1.0,5,3.5,-2%,-2.1,1
COc1ccc(C)cc1NC(=O)c1ccc(S(=O)(=O)N2CCOCC2)cc1,-4,4.8,-3,-2.2,1%,6.0,-3
CCc1cccc(C)c1NC(=O)CN1C(=O)c2ccccc2S1(=O)=O,-42,-2.7,28,1.7,5%,5.9,-4
CCn1cc(CN2CCCC(CO)(Cc3cccc(Cl)c3)C2)cn1 (centres undefined),-2,2.8,2,4.7,.,-1.2,6
COC(=O)CC/C(O)=C1\C(=O)CC(C)(C)CC1=NCCc1nc2ccccc2[nH]1,-10,4.1,18,0.6,2%,1.1,-17
Cc1cc(Sc2ccc([N+](=O)[O-])cn2)ccc1Br,-5,4.9,-1,0.3,.,-4.3,-1
CC(C)CNC(=O)/C=C/c1cccs1,.,.,-1,-0.2,20%,5.6,-6
O=C(N/N=C/c1c(Nc2cccc(C(F)(F)F)c2)nc2ccccn2c1=O)c1ccccc1[N+](=O)[O-],2,-1.6,-23,0.5,.,2.5,-3
COC(=O)C(NC(C)=O)(Nc1nc2ccc(S(C)(=O)=O)cc2s1)C(F)(F)F (centres undefined),.,1.4,-5,6.2,24%&-1%,0.5,3
COc1cccc(C2c3cc4c(cc3OC(N3CCCC3)C2C)OCO4)c1O (centres undefined),.,.,.,.,-11%,-2.5,-11
C=CCN1C(=O)c2ccc(C(=O)N(C)CC(=O)Nc3c(C)cccc3C)cc2C1=O,5,0.6,3,3.3,-2%,2.3,4
COc1ccc(Cl)cc1NC(=O)NCc1ccccn1,1,-0.4,5,-2.0,8%,2.3,3
C=CCOC(=O)C1=C[C@H](C2CCCCC2)C[C@H](OCc2ccc(CO)cc2)O1,50,3.0,-2,-2.8,.,-1.3,0
O=C(Oc1c(Cl)cc(Cl)c2ccccc12)N1CCCC1,-41,3.8,-1,-1.6,-8%,1.1,-2
O=C(CN1CCN(S(=O)(=O)c2ccc(F)cc2)CC1)Nc1ccnn1C1CCCC1,.,.,.,.,5%,-2.1,5
CCCS(=O)(=O)N1CCC(C(=O)N2CCc3ccccc3C2)CC1,.,-2.0,6,-0.3,-3%,-0.4,-5
N=c1c(C(=O)NCC2CCCO2)cc2c(=O)n3ccccc3nc2n1C1CCCCC1 (centres undefined),6,-0.8,3,12,10%,8.4,-6
CCC(C)(C)C1CCC2(CC1)NC(=O)N(CC(=O)N1CCN(C(=O)c3ccco3)CC1)C2=O (centres undefined),-12,0.8,.,.,-2%,-1.8,0
COc1ccccc1-c1cn(C(C)(C)C)nc1C,-2,1.2,-22,4.0,-4%,1.0,2
NNC(=O)c1oc2nc(-c3ccccc3)cc(-c3ccccc3)c2c1N,-2,-0.5,7,7.8,.,4.9,-32
NC1=C([N+](=O)[O-])C(c2ccccc2)C2=C(CCCC2=O)O1 (centres undefined),-11,3.3,4,-0.5,-6%,0.7,-3
O=C(Nc1ccc2c(c1)OCCO2)c1cnccn1,-2,-6.2,-12,-4.0,1%,2.4,3
O=C1c2ccccc2C(Nc2ccc(F)c(Cl)c2)N1c1ccccn1 (centres undefined),7,-0.5,-6,-7.0,>100µM*,-1.8,-23
Fc1ccc(C(c2nnnn2Cc2cccs2)N2CCN(C3CCCCC3)CC2)cc1 (centres undefined),-1,-2.5,-4,?,18%,-0.3,3
FC(F)(F)c1cc(-c2ccco2)nc2ncnn12,0,-2.4,-11,1.5,2%,-1.0,0
Nc1ncnc(Nc2cccc(Cl)c2Cl)n1,.,1.2,38,5.5,24%,-3.5,4
CC1(C)CC(C2N3CC4(C)CN2CC(C)(C3)C4=O)CCO1 (centres undefined),-9,3.6,-11,-4.4,24%,-0.1,4
Oc1ccc(/C=N/n2c(C3CCCCC3)n[nH]c2=S)c(O)c1,.,3.0,-6,2.4,11%,-1.4,-6
CCOC(=O)c1c(-c2cccs2)csc1NC(C)=O,-3,-4.8,-4,3.0,-6%,-0.4,12
Cc1ccc(-n2c(CSc3nc(C)cc(C)n3)nnc2SCC(=O)N2CCCC2)cc1,-12,2.2,-18,2.0,-1%,-0.7,-8
Cc1cc2cc(CNC(=O)c3ccc4c(c3)OCO4)ccc2[nH]1,-16,-0.5,-12,-9.0,-15%,0.4,2
Cc1ccc(NC(=O)C2CCN(c3nc(C)cc(C)n3)CC2)cc1,-2,0.0,-5,0.9,.,3.5,15
c1ccc(SCc2cc(-c3ccccc3)no2)cc1,-12,-3.9,-34,-6.6,1%,-1.5,-10
CCCC/C(O)=C1\C(=O)CC(C)(C)CC1=NCCCCCC(=O)O,-1,0.5,-1,-3.8,.,3.5,-5
CC(=O)Nc1ccc(-c2cc(-c3ccc(NC(C)=O)cc3)nc(-c3ccccc3)n2)cc1,3,-2.1,-8,3.0,-5%,5.3,-12
CSc1ccc(S(=O)(=O)NC(C)c2ccccc2)cc1 (centres undefined),-7,8.6,-5,-2.0,0%,-2.5,-10
CCOC(=O)c1nn(-c2ccc(C)cc2)cc1O,7,0.9,7,-4.8,6%,7.0,8
COc1ccc(C(CNC(=O)c2oc3ccc(F)cc3c2C)N2CCCCC2)cc1 (centres undefined),-38,.,-6,-2.1,.,2.3,-8
O=C1NCCCC1C(=O)N/N=C/c1cccc([N+](=O)[O-])c1 (centres undefined),-3,1.0,4,-2.7,4%,5.0,-2
CCCCN(C(=O)CSc1nnc(-c2ccco2)o1)c1c(N)n(Cc2ccccc2)c(=O)[nH]c1=O,2,-3.3,14,-0.4,-4%,1.6,-9
CC(C)(C)OC(=O)C[C@@H]1C/C=C\C[C@H](CC(=O)N[C@H](CO)Cc2ccccc2)C(=O)N[C@@H](Cc2ccccc2)COC1=O,-4,5.1,.,.,.,-4.2,11
COc1cc(OC)c(/C=N/NC(=O)c2ccc(Cn3nc([N+](=O)[O-])cc3C)cc2)c(OC)c1,-4,0.6,5,1.6,10%,.,.
Cc1ccc(CNC(=O)c2cc(COc3c(F)cccc3F)on2)s1,-8,0.4,34,?,-6%,0.4,-7
Cc1c(Br)c([N+](=O)[O-])nn1CC(=O)Nc1c(C)n(C)n(-c2ccccc2)c1=O,-10,3.2,6,-4.4,.,4.1,5
O=C(COC(=O)/C=C/c1ccccc1[N+](=O)[O-])NC1CC1,-20,-0.4,-2,-0.2,-3%,-0.8,1
COc1cc([N+](=O)[O-])ccc1NC(=O)Nc1ccc(C(=O)N2CCCC2)cc1,-8,5.6,5,1.1,-3%,3.6,-3
Brc1ccc(-c2nnc3sc(CNC4CCCC4)cn23)cc1,-12,-8.5,-1,-1.8,-25%,-0.8,-8
O=C(NCc1ccccc1)c1ccc(N2CCC3(CC2)CC(c2ccc(Cl)cc2)=NO3)c([N+](=O)[O-])c1,-22,-3.0,-2,-2.9,.,-3.7,-10
O=C(CSc1nc2ccccc2[nH]1)N1CCN(C(=O)c2ccco2)CC1,1,-1.4,-9,?,4%,-0.5,10
O=C(COC(=O)CCC(=O)c1ccc(F)cc1)NCc1ccc(Cl)cc1,-1,2.1,.,.,-2%,-2.6,0
CCOC(=O)Cn1c(=O)oc2cc(S(=O)(=O)NCc3cccs3)ccc21,.,-0.3,-8,-0.6,-3%,1.4,3
Cc1ccc(NC(=O)C(=O)c2c[nH]c3ccccc23)cc1,12,5.5,0,4.7,.,2.8,-13
CC(C)NC(=O)c1ccc2c(c1)nnn2C,-4,0.0,-7,3.4,12%,-7.7,-7
Cc1nc(NC(=O)c2ccccc2)sc1-c1csc(Nc2cccc(F)c2)n1,?,-1.8,13,-1.2,5%,.,.
COc1ccc2c(c1)CCCN2C(N)=Nc1ccc(Cl)cc1,.,-2.7,-8,4.1,-3%,2.2,-10
COc1ccccc1N1CCN(C(=O)c2cn(-c3ccccc3)nc2-c2cccnc2)CC1,3,0.2,25,2.4,2%,-0.7,-17
# Other structures:
SMILES,ALR H2O2 inh,LANA-H2A inh,Calb FLC,RanGTP-Imp inh,Vif A3G,HNF4A DNA FP,B2AR ag
COc1ccc(/C=C/C(=O)Nc2ccccc2)cc1OC,30,-0.2,15,0.1,.,-3.0,1
CC(C)(C)c1ccc(C(=O)NCC(=O)N2CCC3(CC2)NCCc2[nH]cnc23)cc1,-3,2.6,-5,3.8,-1%,3.7,-2
Cc1ccc(S(=O)(=O)N(C)c2ccc(C(=O)Nc3cccc(C)n3)cc2)cc1,2,-3.6,-7,-0.6,.,-2.2,9
COc1ccc(S(=O)(=O)NCC(c2ccc(C)cc2)N2CCN(C)CC2)cc1OC (centres undefined),2,0.1,-4,5.6,-5%,2.1,4
COc1ccc(S(=O)(=O)N2CCCCC2)cc1NC(=O)[C@@H]1CCCN1C(=O)c1cccs1,-3,0.3,.,.,-4%,-1.0,-7
CCOC(=O)n1c(=O)n(C)c2ccc(Cl)cc21,9,1.5,-22,-3.1,-5%,-2.7,-4
Cc1ccc(NC(=O)CSc2nc(=O)n(CCN3CCOCC3)c3c2CCCC3)cc1,-23,-7.3,5,3.3,1%,-1.0,-8
COc1ccc(CCN2C(=O)CCC2(C)C(=O)NCc2cccnc2)cc1OC (centres undefined),.,1.1,-2,0.3,4%,0.0,-9
Cc1ncoc1C(=O)Nc1ncc([N+](=O)[O-])s1,.,0.6,38,0.7,.,-5.1,-3
CC(C)c1ccc(/C=N/NC(=O)CN(c2cccc(Cl)c2Cl)S(C)(=O)=O)cc1,-2,-4.1,6,0.7,6%,-1.8,4
CC(C)(SC(=S)N1CCCCCC1)C(=O)O,-5,6.4,2,-4.3,6%,1.3,-9
O=C(Nc1ccccc1)c1ccccc1OCc1ccc(S(=O)(=O)N2CCOCC2)cc1,-3,3.9,5,-2.3,9%,-0.1,2

# One compound at a time (already shown). Screens in order: ALR H2O2 inh, LANA-H2A inh, Calb FLC, RanGTP-Imp inh, Vif A3G, HNF4A DNA FP, B2AR ag
# Record of COc1ccc2c(c1)CCCN2C(N)=Nc1ccc(Cl)cc1 → ., -2.7, -8, 4.1, -3%, 2.2, -10
# Record of Cc1ncoc1C(=O)Nc1ncc([N+](=O)[O-])s1 → ., 0.6, 38, 0.7, ., -5.1, -3
# Record of O=C(COC(=O)/C=C/c1ccccc1[N+](=O)[O-])NC1CC1 → -20, -0.4, -2, -0.2, -3%, -0.8, 1
# Record of COc1ccc(C)cc1NC(=O)c1ccc(S(=O)(=O)N2CCOCC2)cc1 → -4, 4.8, -3, -2.2, 1%, 6.0, -3

# Additional results follow:
SMILES,ALR H2O2 inh,LANA-H2A inh,Calb FLC,RanGTP-Imp inh,Vif A3G,HNF4A DNA FP,B2AR ag
CCc1ccc2[nH]c(=O)c(CN(CCN(CC)CC)C(=O)NC3CCCCC3)cc2c1,-18,2.9,-2,3.5,26%&-4%,-2.7,18
O=C(O/N=C1/CCCc2occc21)c1ccc(F)cc1,-3,4.8,9,2.2,-4%,-1.6,5
O=C(/C=C/c1cccs1)c1cc(F)ccc1OC(=O)N1CCOCC1,-1,0.7,2,-1.4,.,1.5,-2
COc1ccc(O)c(-c2cc(-c3ccc(F)cc3)n[nH]2)c1,10,2.6,29,-3.6,.,1.2,5
